# Bioassay records (PubChem)
# YopH inh: YopH tyrosine phosphatase inhibitors, primary screen, biochemical, fluorescence Ex485/Em525 | inhibition, %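 (about 10 µM by stock and volumes)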 | actives 0.16% (n = 140,000) | AID 898, 2007;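 active means inhibition of 50% or more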;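 further: controls were vehicle for no effect and minimum signal wells for full effect; inactives centre near -20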
# Mtb growth: M. tuberculosis H37Rv growth inhibitors, H37Rv strain (AID 1626). actives 0.95% (n = 220,000). M. tuberculosis H37Rv growth inhibition; higher % means a stronger effect. inhibition, % at 10 µM, or IC50 in µM where a hit was titrated;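 active means confirmed in a dose series; inconclusive means inhibition above 80% but not taken into the dose series; inactive means below 80% or under 30% at every dose of the series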;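 further: bacteria incubated seven days before Alamar blue readout; 0% = bacteria only wells and 100% = bacteria with antibiotic wells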
# RecA splice inh: Mtb RecA intein splicing inhibitors, primary screen, biochemical, fluorescence, HTS | Protein RecA (Mycobacterium tuberculosis (strain ATCC 25618 / H37Rv)), P9WHJ3 | cell-free RecA intein splicing | inhibition, %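 (about 9 µM by stock and volumes)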 | actives 0.75% (n = 290,000) | AID 2221, 2009; in the data active means inhibition above about 30%; inconclusive means no clear call, values can overlap the other calls;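 further: 0% = vehicle wells and 100% = reference inhibitor control wells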
# Target sequence (P9WHJ3 whole entry, looked up, canonical isoform): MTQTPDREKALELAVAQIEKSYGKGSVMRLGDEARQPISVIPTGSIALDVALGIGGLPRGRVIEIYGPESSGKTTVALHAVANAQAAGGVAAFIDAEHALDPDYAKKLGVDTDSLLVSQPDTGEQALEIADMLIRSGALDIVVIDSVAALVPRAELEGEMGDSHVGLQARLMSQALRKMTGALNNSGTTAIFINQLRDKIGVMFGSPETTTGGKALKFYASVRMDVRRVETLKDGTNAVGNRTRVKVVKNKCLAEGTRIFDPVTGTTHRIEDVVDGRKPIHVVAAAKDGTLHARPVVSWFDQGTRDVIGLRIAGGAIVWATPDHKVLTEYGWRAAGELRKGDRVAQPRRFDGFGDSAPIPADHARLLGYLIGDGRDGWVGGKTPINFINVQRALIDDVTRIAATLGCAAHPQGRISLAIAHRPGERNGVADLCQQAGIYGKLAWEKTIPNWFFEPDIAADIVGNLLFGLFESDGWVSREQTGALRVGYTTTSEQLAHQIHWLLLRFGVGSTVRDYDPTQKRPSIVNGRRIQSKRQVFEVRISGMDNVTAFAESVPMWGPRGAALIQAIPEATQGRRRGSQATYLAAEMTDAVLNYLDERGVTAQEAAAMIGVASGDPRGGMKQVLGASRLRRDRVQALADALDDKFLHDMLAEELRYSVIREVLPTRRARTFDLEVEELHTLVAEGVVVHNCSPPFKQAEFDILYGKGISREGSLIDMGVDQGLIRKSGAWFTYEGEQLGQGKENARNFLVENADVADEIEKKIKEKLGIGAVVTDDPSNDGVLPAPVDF
# Arbovirus anti: antivirals against arbovirus infection, primary screen, cell-based, full library, 10K replicate subset. inhibition, % at 10 µM. AID 1251, 2008. arbovirus infection cell-based antiviral screen. actives 0.37% (n = 200,000);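 active means inhibition from about 30%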;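 further: bluetongue infection of BSR cells; cell survival read as ATP light after 72 h; 0% = infected wells without compound and 100% = uninfected wells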
# Mtb betalactam: beta-lactam sensitization of Mtb H37Rv, H37Rv | M. tuberculosis H37Rv growth with meropenem, percent inhibition; hits of this screen are not shown here | inhibition, % at 25 µM | actives 0.27% (n = 330,000);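 active means about 74% or more and at least 40 points above the plate without the antibiotic, then above 30% in a dose series; inconclusive means first-round hits that could not be retested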;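 further: growth measured after seven days incubation then overnight dye step; 0% = bacteria only wells and 100% = bacteria with antibiotic; twin plates without the antibiotic show which effects depend on it; some results filed as inactive read as strong as hits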
# Arbovirus anti repeat: second read-out of Arbovirus anti, no call of its own (marks repeat the call); inhibition, %; measured here: 10K subset replicate screen; many hits read low in the repeat;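 first of two repeat runs on a subset; 0% = infected and 100% = uninfected wells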
# Active calls of the source: *; ? = inconclusive; . = no result given. These rows are one share of the data, so the mix of outcomes need not match the whole.
# The first three records, to show the layout:
SMILES,YopH inh,Mtb growth,RecA splice inh,Arbovirus anti,Mtb betalactam,others
O=C(c1cccc(C(F)(F)F)c1)c1c[nH]c(C(=O)NCCCN2CCOCC2)c1,.,0.2%,0.5,0.6,10.6,
Cc1c(C#N)c(N)c(C(=O)c2ccccc2)n1Cc1ccccc1,-24.2,9.3%,6.2,-9.7,0.5,
COc1cccc(NC(=O)c2cc([N+](=O)[O-])ccc2NC(=O)CNCC2CCCO2)c1 (stereo not drawn),.,3.7%,-1.3,-3.5,2.2,

# This part in full, repeating the preview:
SMILES,YopH inh,Mtb growth,RecA splice inh,Arbovirus anti,Mtb betalactam,others
O=C(c1cccc(C(F)(F)F)c1)c1c[nH]c(C(=O)NCCCN2CCOCC2)c1,.,0.2%,0.5,0.6,10.6,
Cc1c(C#N)c(N)c(C(=O)c2ccccc2)n1Cc1ccccc1,-24.2,9.3%,6.2,-9.7,0.5,
COc1cccc(NC(=O)c2cc([N+](=O)[O-])ccc2NC(=O)CNCC2CCCO2)c1 (stereo not drawn),.,3.7%,-1.3,-3.5,2.2,
N#CCC(=O)Nc1ccc(C(=O)OCC(=O)N2CCCC2=O)cc1,.,.,-0.4,.,-11.8,
CN1CCN(CC(=O)Nc2ccc([N+](=O)[O-])cc2Br)CC1,.,-5.7%,.,-3.2,-1.1,
CC(C)NC(=O)c1cc2c(-c3ccc(Cl)cc3)nn(C)c2s1,-39.8,8.1%,1.2,0.1,-1.3,Arbovirus anti repeat=-8.4
CCc1nc(NCc2ccc3c(c2)OCO3)c2oc3ccccc3c2n1,7.2,8.85µM*,16.7,-13.4,62.2,
Cc1ccc(NC(=O)C2CCN(S(=O)(=O)c3c(C)noc3/C=C/c3ccco3)CC2)nc1,-23.2,0.3%,-3.2,-17.8,-5.2,
Cc1cc(C)nc(/N=C(\NC(=O)C(C)(C)C)Nc2ccccc2)n1,.,5.2%,1.4,.,-8.4,
O=C(CSc1n[nH]c(-c2cccnc2)n1)Nc1ccc(Br)cc1,.,.,1.0,.,37.5,
CC(C)Oc1cccc(C2NC(=O)c3ccccc3O2)c1 (stereo not drawn),.,.,-0.3,.,2.8,
CCn1c(SCC(=O)NNC(=O)c2ccccc2)nnc1-c1ccncc1,-35.9,-1.5%,-0.9,-2.4,-1.5,
CCN(CC)S(=O)(=O)c1ccc(C(=O)OCn2nnc3ccccc3c2=O)cc1,-19.7,24.5%,1.0,-3.8,99.7,
Cn1nc(OCC(=O)O)cc1C(F)(F)F,.,-3.9%,1.3,.,1.3,
O=C(NCC1CCCO1)C(c1cccs1)N(Cc1cccs1)C(=O)Cn1nnc(-c2cccs2)n1 (stereo not drawn),-69.5,5.3%,.,-11.5,-10.0,
Cn1c(=O)cc(N)n(Cc2ccccc2)c1=O,-22.9,-6.1%,1.8,-7.1,-1.6,
COc1ccc(N2CCN(C(=O)CSc3nc4[nH]ncc4c(=O)n3-c3cccc4ccccc34)CC2)cc1,.,29.1%,3.4,21.4,73.2,
O=C1NN(c2cccc(Br)c2)C(=O)/C1=C\c1ccc(O)cc1,.,.,-1.4,.,2.2,
CCc1cc(-c2onc(C)c2-c2cscn2)c(O)cc1OC,.,-11.6%,2.0,6.6,-1.0,
CCc1ccc2oc(C(=O)NCCc3ccc(S(N)(=O)=O)cc3)cc(=O)c2c1,.,.,2.2,.,0.7,
CC1(C)C(c2ccccc2)=NC(c2cccnc2)=[N+]1[O-],-23.0,-7.0%,3.5,-4.0,-14.6,Arbovirus anti repeat=2.9
O=C(NCc1ccccn1)C1CCN(S(=O)(=O)N2CCCC2)CC1,6.2,-9.2%,2.8,6.9,-2.1,Arbovirus anti repeat=1.8
CC(C)OC(=O)c1ccc(N)cc1,.,30.1µM*,0.9,0.9,-6.2,
Cn1c(=O)n(C)c2cc([N+](=O)[O-])c(N3CCNCC3)cc21,.,0.8%,-2.1,3.5,-0.2,
Cc1cccc(NC(=S)NNC(=O)CCn2cc(C)cn2)c1,-28.7,-3.3%,0.1,-4.5,-16.9,

# An excerpt from above in order of molar mass, highest first:
SMILES,YopH inh,Mtb growth,RecA splice inh,Arbovirus anti,Mtb betalactam,others
Cc1ccc(NC(=O)C2CCN(S(=O)(=O)c3c(C)noc3/C=C/c3ccco3)CC2)nc1,-23.2,0.3%,-3.2,-17.8,-5.2,
CCn1c(SCC(=O)NNC(=O)c2ccccc2)nnc1-c1ccncc1,-35.9,-1.5%,-0.9,-2.4,-1.5,
Cn1nc(OCC(=O)O)cc1C(F)(F)F,.,-3.9%,1.3,.,1.3,

# (list continues)
SMILES,YopH inh,Mtb growth,RecA splice inh,Arbovirus anti,Mtb betalactam,others
COc1ccc2[nH]cc(C(=O)CN3CCC(C)CC3)c2c1,-30.5,-1.7%,1.9,-1.8,-6.6,
CCOc1cc(N2CCOCC2)c(OCC)cc1NC(=O)CN1C(=O)C2CC=CCC2C1=O (stereo not drawn),.,-7.4%,-4.4,4.4,2.1,
Cc1n[nH]c(C)c1CCC(=O)N/N=C/c1cccs1,.,10.5%,5.4,.,-5.6,
C/C(CC(=O)Nc1ccccn1)=N\NC(=O)c1ccc(C)cc1,-16.8,-3.0%,46.9*,1.5,2.8,
CCOC(=O)c1c(C)oc2cc(Br)c(O)c(Br)c12,-40.1,8.3%,-8.9,7.7,2.9,Arbovirus anti repeat=5.0
CCC(=O)NC(=S)N1CCN(c2ccc([N+](=O)[O-])cc2Cl)CC1,-3.6,18.9%,-2.0,4.1,0.3,
Cc1cc(C#N)c2ccccc2n1,-15.4,-2.6%,-0.4,2.6,-10.3,
CCOC(=O)C(CC)Sc1nc2c(cnn2-c2ccc(F)cc2)c(=O)[nH]1 (stereo not drawn),.,.,0.4,.,10.9,
COc1ccc(NC(=O)c2cccc(NC3=NC4CS(=O)(=O)CC4S3)c2)cc1Cl (stereo not drawn),.,.,0.5,.,7.1,
Cc1nn(C)c(C)c1NC(=O)Nc1ccc(Cl)c(Cl)c1,.,25.0%,2.3,-12.9,2.6,
COC(=O)c1c(NC(C)=O)sc(C)c1C,.,-0.1%,-0.4,0.4,0.2,
NC(=O)N/N=C/c1c(F)c(F)c(F)c(F)c1F,.,-2.9%,-0.9,1.4,2.3,
CCOC(=O)C(C)(C)Sc1nc2c(cnn2-c2ccc(Cl)cc2)c(=O)[nH]1,-31.9,15.6%,-0.6,21.2,0.3,Arbovirus anti repeat=30.6
CC(=O)COc1coc(CN2CCN(c3ccc(F)cc3)CC2)cc1=O,.,.,2.8,.,0.1,
Clc1cccc(CN2CCN(Cc3ccco3)CC2)c1,.,.,-0.4,.,0.4,
COC(=O)CC1C(=O)NCCN1C(=O)Nc1ccccc1 (stereo not drawn),-32.1,-7.3%,-0.8,-3.3,1.9,
COc1ccc(/C=N/NC(=O)c2cc(C3CC3)[nH]n2)cc1OC,.,-1.8%,-1.9,.,-3.5,
Cc1ccc(C(=O)CSc2ccccc2C(=O)O)cc1,.,.,-3.5,.,76.8,
Cc1ccc(-n2ncc3c2CC(C)(C)CC3NC(=O)c2ccncc2)cc1 (stereo not drawn),.,.,0.4,.,8.8,
COC(=O)c1ccc(NC(=O)N2CCOCC2)cc1,-39.9,-4.1%,1.8,-4.1,12.5,
CCN(CC)P(=O)(c1n(CC)cc[n+]1CC)N(CC)CC,.,0.5%,-0.4,0.1,-3.9,
CN(CC1CCCO1)S(=O)(=O)c1ccc(C(=O)Nc2ccccc2F)cc1 (stereo not drawn),.,.,0.3,.,?,
CCOC(=O)C1=C(C)NC(C)=C(C(=O)OCC)C1C(=O)OC1CCOC1=O (stereo not drawn),11.8,4.8%,-1.3,0.8,-10.2,
Cn1c(=O)c2c(nc(CN3CCC(C(N)=O)CC3)n2Cc2ccccc2F)n(C)c1=O,-31.2,-7.5%,-3.6,1.4,-6.5,
Cc1ccc(N(CC(=O)NC2CCCCC2C)S(=O)(=O)c2c(C)noc2C)cc1 (stereo not drawn),.,.,1.5,.,-9.2,
SMILES,YopH inh,Mtb growth,RecA splice inh,Arbovirus anti,Mtb betalactam,others
CC1CCCN(C/C(O)=C(\C#N)c2nc3ccccc3[nH]2)C1 (stereo not drawn),-14.7,-1.6%,0.1,-0.1,8.8,
O=S(=O)(Cc1ccccc1)Nc1cccc(F)c1,.,.,-0.1,.,2.4,
Cc1nn(Cc2ccccc2Cl)c(C)c1NC(=O)c1cc(-c2ccc(F)cc2)on1,-5.1,-8.5%,0.1,-1.2,-7.5,
CCn1c(C(C)NC(=O)c2ccc(OC)c(OC)c2)nc2ccccc21 (stereo not drawn),-34.0,-7.2%,0.2,-6.7,-0.1,
CN(CCc1cnn(C)c1)Cc1cn[nH]c1-c1ccc(-c2ccccc2)cc1,.,3.7%,-0.4,-25.9,-0.2,
Cc1cccc(C)c1Nc1c(-c2ccc(N3CCOCC3)cc2)nc2ncccn12,-32.9,.,-13.2,-2.1,12.3,
CCOc1ccc(CN(C)Cc2cc(=O)oc3cc(C)c(Cl)cc23)cc1,.,.,8.5,.,-2.5,
Cc1ccc(OCCCC(=O)Nc2ccc(N3CCOCC3)cc2)c(C)c1,-6.4,4.5%,-0.5,-13.6,-1.6,
CCSc1nc2c(c(=O)[nH]1)C(c1cccnc1)C(C(=O)OC(C)C)=C(C)N2 (stereo not drawn),1.7,-8.7%,1.5,3.2,-11.9,Arbovirus anti repeat=-1.7
Cc1onc(-c2ccccc2Cl)c1C(=O)N1CC(C)CC(C)C1 (stereo not drawn),.,.,3.3,.,-1.7,
Cc1nn(C(=O)c2cccc([N+](=O)[O-])c2)c(C)c1Br,.,.,15.3,.,4.8,
CC(C)c1ccc(S(=O)(=O)N2CCC(C(=O)N3CCC3)CC2)cc1,.,.,-2.2,.,4.5,
COc1ccc(C(=O)COC(=O)CCC(=O)Nc2ccc(C(C)=O)cc2)cc1,.,.,-0.7,.,-6.1,
NC(=O)CSc1nnc(NC(=O)c2ccc(S(=O)(=O)N3CCOCC3)cc2)s1,.,.,0.2,.,-22.1,
COc1ccc(S(=O)(=O)N2CCOC2CNC(=O)C(=O)NCCN2CCOCC2)cc1 (stereo not drawn),.,.,-0.9,.,-5.2,
COc1ccc(NC(=O)c2cc3n(n2)C(C(F)(F)F)CC(c2ccc(OC)cc2)N3)cc1 (stereo not drawn),2.1,4.2%,-1.3,3.0,-2.2,
Cc1cccn2c(CNC3CCCc4ccccc43)c(C(=O)N3CCOCC3)nc12 (stereo not drawn),.,-7.3%,-1.8,.,-10.6,
O=C(CN1C(=O)c2ccccc2C1=O)Nc1cccnc1,-51.3,3.9%,-1.0,3.7,-15.8,
COc1cc(CCC(=O)OCC(=O)NCC2CCCCC2)cc(OC)c1OC,.,0.4%,-1.0,8.0,6.4,
COc1ccccc1CN1CC(C(=O)NCc2cc(F)cc(C(F)(F)F)c2)CCC1=O (stereo not drawn),.,.,0.1,.,-7.2,
Fc1ccccc1N1CCN(Cc2ccc3c(c2)OCO3)CC1,-19.9,4.2%,.,-0.3,-4.4,
Cc1ccc(CCNC(=O)C2CCC(=O)N2C(C)C)cc1 (stereo not drawn),-24.8,-3.4%,-2.8,5.0,-2.0,
CN1CCC(OC(=O)c2cccc(Cl)c2)CC1,.,-4.5%,-1.5,-2.4,-12.4,
Cc1ccc(C)c(OCc2cc(C(=O)N3CC[C@H](O)C3)no2)c1,.,.,0.6,.,5.9,
Cc1oc(-c2cccc(Cl)c2)[n+]([O-])c1C,-19.9,-1.8%,-1.0,-7.4,6.9,
SMILES,YopH inh,Mtb growth,RecA splice inh,Arbovirus anti,Mtb betalactam,others
NC(=O)N/N=C/C=C/c1ccccc1,.,0.7%,-3.1,4.6,6.9,
Cc1cccc(NC(=O)c2c(-c3ccccc3)noc2C)n1,.,-2.2%,-3.4,16.4,-6.2,
CN1CCN(c2ccc([N+](=O)[O-])c(N)c2)CC1,-15.0,2.4%,4.0,-1.9,0.8,
Cc1ncoc1C(=O)N1CCCC(C(=O)c2ccc(-c3ccccc3)c(F)c2)C1 (stereo not drawn),.,5.3%,3.1,-3.6,1.9,
COc1ccc(-c2cc(C(F)(F)F)nc(SCC(=O)N3CCOCC3)n2)cc1OC,-19.8,-2.5%,-1.0,1.1,9.2,
CCn1c(=O)cc(SCC(=O)NCc2ccco2)c2ccccc21,-16.3,-10.8%,-1.3,-19.3,?,
Cc1nnc(Cl)c2nn(-c3ccccc3)c(C)c12,-23.3,-0.2%,-3.4,-2.8,1.5,
CC1CN2c3ccc([N+](=O)[O-])cc3CC3(C(=O)N(C)C(=O)N(C)C3=O)C2C(C)O1 (stereo not drawn),.,-12.5%,-1.5,.,-3.0,
O=C(NCC(c1ccco1)N1CCN(c2ccccc2F)CC1)C(=O)NC1CCCC1 (stereo not drawn),.,.,-1.8,.,-7.5,
O=C(Cn1cnc2c(cnn2-c2ccc(Cl)cc2)c1=O)N1CCN(c2ccccc2)CC1,.,-1.8%,2.3,-5.8,14.6,
